Mtb bLac sens: beta-lactam sensitization of Mtb H37Rv, H37Rv; M. tuberculosis H37Rv growth with meropenem, percent inhibition; hits of this screen are not shown here; inhibition, % at 25 µM; 330,000 tested, 0.27% active;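 active means about 74% or more and at least 40 points above the plate without the antibiotic, then above 30% in a dose series; inconclusive means first-round hits that could not be retested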;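 further: growth measured after seven days incubation then overnight dye step; 0% = bacteria only wells and 100% = bacteria with antibiotic; twin plates without the antibiotic show which effects depend on it; some results filed as inactive read as strong as hits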
Mtb H37Rv: M. tuberculosis H37Rv growth inhibitors, H37Rv strain (AID 1626) | M. tuberculosis H37Rv growth inhibition; higher % means a stronger effect | one-dose inhibition, % at 10 µM; IC50 in µM for titrated hits | 220,000 tested, 0.95% active;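 active means confirmed in a dose series; inconclusive means inhibition above 80% but not taken into the dose series; inactive means below 80% or under 30% at every dose of the series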;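 further: bacteria incubated seven days before Alamar blue readout; 0% = bacteria only wells and 100% = bacteria with antibiotic wells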
YopH PTP inh: YopH tyrosine phosphatase inhibitors, primary screen, biochemical, fluorescence Ex485/Em525; YopH tyrosine phosphatase [Yersinia enterocolitica]; inhibition, %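 (about 10 µM by stock and volumes)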; 140,000 tested, 0.16% active;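 active means inhibition of 50% or more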;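 further: controls were vehicle for no effect and minimum signal wells for full effect; inactives centre near -20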
Arbovirus anti: antivirals against arbovirus infection, primary screen, cell-based, full library, 10K replicate subset; arbovirus infection cell-based antiviral screen; inhibition, % at 10 µM; 200,000 tested, 0.37% active;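 active means inhibition from about 30%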;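 further: bluetongue infection of BSR cells; cell survival read as ATP light after 72 h; 0% = infected wells without compound and 100% = uninfected wells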
RecA splice inh: Mtb RecA intein splicing inhibitors, primary screen, biochemical, fluorescence, HTS; 290,000 tested, 0.75% active; Protein RecA (Mycobacterium tuberculosis (strain ATCC 25618 / H37Rv)), P9WHJ3; cell-free RecA intein splicing; inhibition, %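 (about 9 µM by stock and volumes)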; AID 2221, 2009; in the data active means inhibition above about 30%; inconclusive means no clear call, values can overlap the other calls;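 further: 0% = vehicle wells and 100% = reference inhibitor control wells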
Target sequence (P9WHJ3 whole entry, looked up, canonical isoform): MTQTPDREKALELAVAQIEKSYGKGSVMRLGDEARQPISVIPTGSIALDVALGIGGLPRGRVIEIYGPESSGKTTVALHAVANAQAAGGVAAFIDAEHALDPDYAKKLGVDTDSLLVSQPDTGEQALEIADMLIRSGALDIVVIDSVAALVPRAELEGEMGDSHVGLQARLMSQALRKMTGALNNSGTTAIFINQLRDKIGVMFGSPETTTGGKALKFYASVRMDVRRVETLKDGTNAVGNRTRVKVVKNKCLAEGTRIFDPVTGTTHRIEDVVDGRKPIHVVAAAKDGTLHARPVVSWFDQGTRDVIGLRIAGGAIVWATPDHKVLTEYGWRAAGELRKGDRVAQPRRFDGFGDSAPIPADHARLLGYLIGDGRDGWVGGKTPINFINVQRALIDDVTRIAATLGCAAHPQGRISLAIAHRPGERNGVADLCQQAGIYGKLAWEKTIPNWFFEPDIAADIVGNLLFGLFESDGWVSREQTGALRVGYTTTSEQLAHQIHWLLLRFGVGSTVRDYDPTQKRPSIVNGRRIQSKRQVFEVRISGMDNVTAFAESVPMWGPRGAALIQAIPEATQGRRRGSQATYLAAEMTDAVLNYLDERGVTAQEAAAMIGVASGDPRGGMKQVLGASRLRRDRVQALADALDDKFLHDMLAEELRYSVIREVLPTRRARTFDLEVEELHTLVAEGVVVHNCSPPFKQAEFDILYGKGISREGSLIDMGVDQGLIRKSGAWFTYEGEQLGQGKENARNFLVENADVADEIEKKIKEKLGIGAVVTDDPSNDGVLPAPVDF
Arbovirus anti repeat: also measured in Arbovirus anti; calls as there; inhibition, %; measured here: 10K subset replicate screen; many hits read low in the repeat;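 first of two repeat runs on a subset; 0% = infected and 100% = uninfected wells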
Numbers without * were called inactive; u = inconclusive; x = no result given.

SMILES | Mtb bLac sens | Mtb H37Rv | YopH PTP inh | Arbovirus anti | RecA splice inh | others
Cc1cccc(NC(=S)N2CCN(C(=O)c3ccco3)CC2)c1C | -1 | x | x | x | 0.7
CCc1nnc(NC(=O)c2nc(S(=O)(=O)Cc3ccccc3)ncc2Cl)s1 | 0 | x | x | x | 66*
COC(=O)c1cccc(N(CC(=O)NCC2CCCO2)C(=O)CCC(=O)Nc2cc(C)on2)c1 (configuration not stated) | 1 | x | x | x | -0.1
COC(=O)C1=C(C)N(CCCC(=O)O)C(=O)NC1c1ccccc1OS(=O)(=O)c1ccc([N+](=O)[O-])cc1 (configuration not stated) | 7 | -9% | x | x | -4.5
O=C(NCC1CCCN1S(=O)(=O)c1cccs1)c1ccccc1 (configuration not stated) | -4 | x | x | x | 0.6
Clc1cccc(Cc2ccc(Cl)nn2)c1 | 3 | 3% | x | -4 | 0.8
O=c1oc2ccccc2c(Nc2ccccc2)c1[N+](=O)[O-] | -3 | -3% | -20 | 1 | -1.1
CC(=O)NC(Cc1c[nH]c2ccccc12)C(=O)NCc1ccco1 (configuration not stated) | -3 | x | x | x | -6.5
COc1ccccc1C(=O)NC(C)c1ccc(-n2ccnc2)cc1 (configuration not stated) | -6 | x | x | x | 1.0
COCCNC(=O)Cc1c(C)c2cc3c(cc2oc1=O)OC(C)(C)CC3 | -5 | x | x | x | 0.4
CSc1nc2ccc(NS(=O)(=O)c3ccc([N+](=O)[O-])cc3)cc2s1 | -10 | -5% | x | x | 1.5
COc1cc(/C(C)=N/NC(=O)Cc2c(C)[nH][nH]c2=O)ccc1O | 4 | -8% | -38 | -11 | 2.8
Cc1ccc(Cn2c(C)c3cnn(CC(=O)NC4CCCC4)c(=O)c3c2C)cc1 | -2 | x | x | x | 0.9
CN1CCN(Cc2nc(N)nc(Nc3ccc4c(c3)OCCO4)n2)CC1 | -2 | -12% | -38 | -2 | 4.2
Nc1cccc2c(O)cccc12 | 0 | x | x | x | 56*
COc1ccccc1C1=NN(C(=O)c2ccccc2)C(c2ccc(Br)cc2)C1 (configuration not stated) | -4 | x | x | x | 0.1
O=C(Nc1nc(-c2ccccn2)cs1)C1CC1 | 78 | 4µM* | -1 | -6 | 0.6 | Arbovirus anti repeat=-14
COc1ccc(C(=O)C2CCN(C(=O)c3ccc(C)cc3)CC2)cc1 | -10 | -3% | 10 | 4 | 0.9
COc1ccccc1NC(=O)CCNC(=O)c1ccc(C)cc1 | -6 | x | x | x | -1.4
Cc1cc(=O)oc(C)c1C(=O)OCC(=O)c1ccccc1 | 0 | -6% | -40 | 1 | -3.5

6 records drawn at random from the list so far, as already listed:
SMILES | Mtb bLac sens | Mtb H37Rv | YopH PTP inh | Arbovirus anti | RecA splice inh | others
CN1CCN(Cc2nc(N)nc(Nc3ccc4c(c3)OCCO4)n2)CC1 | -2 | -12% | -38 | -2 | 4.2
COc1ccccc1C1=NN(C(=O)c2ccccc2)C(c2ccc(Br)cc2)C1 (configuration not stated) | -4 | x | x | x | 0.1
O=C(Nc1nc(-c2ccccn2)cs1)C1CC1 | 78 | 4µM* | -1 | -6 | 0.6 | Arbovirus anti repeat=-14
COc1ccc(C(=O)C2CCN(C(=O)c3ccc(C)cc3)CC2)cc1 | -10 | -3% | 10 | 4 | 0.9
Nc1cccc2c(O)cccc12 | 0 | x | x | x | 56*
CSc1nc2ccc(NS(=O)(=O)c3ccc([N+](=O)[O-])cc3)cc2s1 | -10 | -5% | x | x | 1.5

New compounds follow
SMILES | Mtb bLac sens | Mtb H37Rv | YopH PTP inh | Arbovirus anti | RecA splice inh | others
CC(C)Cc1nnc(NC(=O)CCc2ccccc2)s1 | -6 | x | x | x | 0.3
CCOC(=O)C1=C(C)N=c2s/c(=C\c3cc(OC)c(OC)c(OC)c3)c(=O)n2C1/C=C/c1ccccc1 (configuration not stated) | 1 | -4% | -29 | -3 | -2.6
CC1(C)CC(=O)C=C(NC2CCCCCCC2)C1 | -4 | -6% | 14 | -1 | 1.4
COc1ccc(C(=O)N2CCCCCC2)cc1OC1CCN(C(C)C)CC1 | -10 | x | x | x | -0.6
O=C1C2CCCN2c2ccc(S(=O)(=O)N3CCOCC3)cc2N1Cc1ccccc1F (configuration not stated) | -1 | -7% | 8 | 18 | -20
O=C(c1cccs1)N(c1ccc(Br)cc1)C1C=CS(=O)(=O)C1 (configuration not stated) | -10 | 5% | x | -1 | 2.1
COc1ccc(CNC(=O)CN(C(=O)CCC(=O)Nc2nccs2)c2ccccc2C)cc1 | 1 | x | x | x | 1.0
COC(=O)Nc1nnc(-c2ccc(OC)cc2)s1 | 6 | -3% | x | x | x
COc1ccc(Nc2oc(COc3ccc(OC)cc3)nc2C#N)cc1 | -9 | -1% | -76 | -9 | 7.4
Cc1c2ccccc2nc2c(F)c(N(C)C)c(F)c(F)c12 | -3 | 6% | -6 | -7 | -26
CCC(Sc1nnc(C)s1)C(=O)Nc1nccs1 (configuration not stated) | -6 | 8% | -30 | 2 | -0.8
Cc1ccnc(SCC(=O)N2CCN(c3cccc(Cl)c3)CC2)n1 | 3 | -10% | -14 | 8 | 1.5
Cc1ncc([N+](=O)[O-])n1CC(=O)Nc1ccc(F)cc1F | 7 | x | x | x | -1.0
COC(=O)C1CCN(C(=O)C(C)Oc2ccc(Cl)cc2Cl)CC1 (configuration not stated) | -4 | -4% | -9 | 0 | -2.4
CCCn1ccc(O)c(Cc2ccc(Cl)cc2)c1=O | -11 | 6% | x | 1 | 2.9
COc1ccccc1CC1/C(=N/O)C2CCN1CC2 (configuration not stated) | -2 | -9% | -12 | 5 | 1.4
Cc1ccnc(NC(=O)CCC(=O)N(CC(=O)NC(C)(C)C)c2ccc3c(c2)OCCO3)c1 | -2 | -3% | x | -4 | 0.1
CCN(CC(=O)NCc1ccc(Cl)cc1)C(=O)c1ccc(S(=O)(=O)N(C)C)cc1 | -8 | 3% | x | 2 | 1.8
Cc1cc(-c2c(C)n([O-])c(C)c(C)[n+]2=O)ccc1F | -3 | -5% | -29 | 3 | 0.9 | Arbovirus anti repeat=2
COc1cc2c(cc1OC)C(/C(C#N)=N\O)=NC(C)(C)C2 | 9 | -1% | 37 | -2 | 0.1
O=C(Nc1ccccc1Cl)c1ccccc1Oc1ccc(C(F)(F)F)cc1[N+](=O)[O-] | 10 | 3% | -6 | -19 | x
Cc1cc(C)c(C)c(S(=O)(=O)N2CCN(CC(=O)Nc3ccc([N+](=O)[O-])cc3)CC2)c1C | -8 | 3% | -31 | -19 | -1.7
CCCCn1c(N)c(N(Cc2ccccc2OC)C(=O)COc2ccc(F)cc2Cl)c(=O)[nH]c1=O | 6 | x | x | x | 1.6
CC1CCc2c(sc(NC(=O)c3ccco3)c2C(=O)O)C1 (configuration not stated) | 8 | x | x | x | 2.8
Cc1ccc(NC(=O)CS(=O)CC(=O)Nc2cccc(C)c2C)cc1F (configuration not stated) | u | -1% | -55 | 7 | -1.8
CCCn1nnnc1SCC(=O)N1CCCc2ccccc21 | 3 | -5% | -10 | 2 | -1.6
Cc1ccc(C)c(NC(=O)c2nc(-c3ccccc3)n(-c3ccccc3)n2)c1 | 9 | 2% | 6 | -14 | 12
Cc1c(-n2c(SCC(=O)NC(C)C(C)C)nc3ccccc3c2=O)c(=O)n(-c2ccccc2)n1C (configuration not stated) | -6 | 4% | x | 3 | -2.2
CCn1c(CSc2nc3ccccc3s2)n[nH]c1=S | -12 | -1% | -2 | 2 | 5.0
O=C1CCCN1CCC1CCCCN1Cc1nc(COc2ccccc2)no1 (configuration not stated) | -1 | 4% | x | -1 | -9.1
c1cc2nnnn2nc1N1CCCCC1 | 2 | -7% | -43 | -4 | -5.4
CNC(=O)Nc1cccc(NC(=O)NC)n1 | -3 | x | -44 | 0 | x
CCOc1ccc(OCCC(=O)OCC(=O)NCc2ccc(Cl)cc2)cc1 | -12 | x | x | x | -0.8
O=C(Nc1ccc(NC(=O)N2CCN(c3ccccc3O)CC2)cc1)N1CCN(c2ccccc2O)CC1 | 7 | x | x | x | 0.3
Cc1cc(C)n(-c2ccc(C(=O)OCC(=O)NCc3ccc(F)cc3)cc2)n1 | 7 | -2% | -19 | -4 | -0.4
O=S(=O)(c1cccc(-c2nc3ccccc3s2)c1)N1CCCC1 | 2 | 7% | -7 | 7 | -0.4
Cc1ccc(-c2noc(CCC(=O)N(C)c3ccccc3C)n2)cc1 | -4 | 12% | -10 | -10 | 6.0
Fc1cccc(Cl)c1/C=N/n1c(-c2cccnc2)n[nH]c1=S | -12 | -6% | x | -5 | 1.5
Brc1ccc(CSc2nnc(Cc3c[nH]c4ccccc34)o2)cc1 | 52 | x | -9 | 4 | 17
CCOC(=O)c1cc(CO)cc(C(=O)OCC)c1 | -7 | -3% | x | x | 8.6
COc1ccc(CNC(=O)c2ccc(N3CCC4(CC3)CC(c3ccc(Cl)cc3)=NO4)c(NC(=O)c3ccccc3)c2)cc1 | -15 | -8% | x | x | -0.7
Cc1noc(C)c1COc1ccc(C(=O)NCCc2ccc(S(N)(=O)=O)cc2)cc1 | -10 | x | x | x | 1.1
COc1cccc2c1OC[C@@H](CO)[C@H]2N(C)C(=O)Nc1ccc(Cl)cc1 | -5 | -1% | -34 | -5 | -1.9
CCOc1cc(C2C(C(=O)OC(C)C)=C(C)NC3=C2C(=O)CCC3)cc([N+](=O)[O-])c1O (configuration not stated) | 5 | 0% | x | 25 | 3.4
CC(=O)NC(Cc1c[nH]c2ccccc12)C(=O)O (configuration not stated) | 2 | 3% | x | 5 | -1.0
COc1ccc(C2CCCN2C(=O)c2cccs2)cc1 (configuration not stated) | 6 | -3% | -34 | 0 | -3.3
O=C(Oc1cccc2cccnc12)c1cccc(-n2cnnn2)c1 | -5 | -8% | 27 | -1 | -0.7
Fc1ccc2c(c1)C1OCCCC1C(c1ccccc1)N2 (configuration not stated) | -2 | x | x | x | 3.1
O=C(CC1SCCNC1=O)Nc1cccc([N+](=O)[O-])c1 (configuration not stated) | -4 | -1% | x | x | -7.6
Cc1cc(C)n2c(-c3ccccc3Cl)nnc2n1 | -6 | -3% | -31 | -1 | 2.3

Continued, overlapping the part above by 4 compounds.
SMILES | Mtb bLac sens | Mtb H37Rv | YopH PTP inh | Arbovirus anti | RecA splice inh | others
O=C(Oc1cccc2cccnc12)c1cccc(-n2cnnn2)c1 | -5 | -8% | 27 | -1 | -0.7
Fc1ccc2c(c1)C1OCCCC1C(c1ccccc1)N2 (configuration not stated) | -2 | x | x | x | 3.1
O=C(CC1SCCNC1=O)Nc1cccc([N+](=O)[O-])c1 (configuration not stated) | -4 | -1% | x | x | -7.6
Cc1cc(C)n2c(-c3ccccc3Cl)nnc2n1 | -6 | -3% | -31 | -1 | 2.3
CCOc1ccc(-c2c(C(=O)N/N=C/C3CCCCC3)nnn2-c2nonc2N)cc1 | 7 | x | x | x | -1.8
CCOc1ccc(CCNC(=O)CCC(=O)N2CCOc3ccccc32)cc1OCC | -5 | x | x | x | -0.8
CCN(CC(F)(F)C(F)F)S(=O)(=O)c1ccc(NC(=O)OC)cc1 | -5 | -12% | -20 | 1 | 0.8
CC(C)c1ccc(S(=O)(=O)/N=C2\C=C(NS(=O)(=O)c3ccccc3)C(=O)c3ccccc32)cc1 | 14 | x | x | x | 45*
O=C1CSC(c2ccccc2Br)N1c1ccc(Cl)cn1 (configuration not stated) | -3 | 8% | x | 8 | 13
CCC(C(=O)Nc1ccncc1)c1ccccc1 (configuration not stated) | 6 | -2% | -17 | 12 | -1.0
CC(C)(C)c1nc2scc(-c3ccc(Cl)cc3)c2c(=O)o1 | 2 | -2% | -20 | 5 | -1.0
O=C(C1CCC1)N1CCc2cc(S(=O)(=O)NC3CCCc4ccccc43)ccc21 (configuration not stated) | 4 | -6% | -5 | -1 | -1.4
Nc1nc(Nc2ccccc2F)nc(N2CCCC2)c1[N+](=O)[O-] | -2 | x | x | x | 4.2
OCCN1CCN(C(=S)c2ccc(Cl)c(Cl)c2)CC1 | -6 | -5% | 3 | 15 | -3.8
Cc1cc(C)nc(SCCN2CCCCC2)n1 | -18 | x | x | x | 3.5
COc1ccc(Nc2nc(C(=O)NCc3ccco3)cs2)cc1 | 85 | 12% | x | x | 6.8
CC(Nc1cccc(F)c1)C(=O)Nc1ccc(S(N)(=O)=O)cc1 (configuration not stated) | -3 | 0% | x | 15 | -0.3

Screening data: PubChem BioAssay, several laboratories

This is a subset (hit frequency here may not be typical).
